TRPML1 ag: agonists of human TRPML1 channel. Q9GZU1. TRPML1-expressing cells, Ca2+ dye fluorescence, FDSS; host cell line not named in the record; reference of the full effect not given here. activation, % (no concentration beside the values). 0.12% of 410,000 active. AID 624414; in the data active = activation above about 50%; inconclusive = about 30% to 50%; inactive = below about 30%; also: 0% is about no effect; the text of the record puts the active cut at 80%
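Calcium fluorescence on an FDSS kinetic reader gave the read-out. Tet-induced TRPML1-DL cells were plated overnight, dye-loaded (Ca8 with quencher, 45-90 min, room temperature, dark), then read 110 s after compound addition, and again 110 s after 4uM final 54-4 (EC80).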
D2 ag: activates the human D2 dopamine receptor | P14416 | DiscoveRx PathHunter D2 beta-arrestin, luminescence, 90 min; 100% = 57 uM dopamine signal | activation, % (test concentration not listed) | 0.084% of 360,000 active; in the data active = activation above about 40%; inconclusive = about 15% to 40%; inactive = below about 15%; also: compound concentration not given in the record; the text of the record calls up to 30% inactive
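Agonist mode: compounds alone added to overnight-plated D2 PathHunter cells for 90 min at 37 C, with 57 uM final dopamine (EC100) defining full response. Beta-arrestin recruitment detected by chemiluminescent reagent, read after 1 h at ambient temperature.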
D2 PAM: positive allosteric modulators of human D2 dopamine receptor; P14416; DiscoveRx D2 beta-arrestin cells, luminescence, 90 min; 100% = 57 uM dopamine signal; potentiation, % (test concentration not listed); 0.23% of 360,000 active; active = potentiation of 50% or more; inconclusive = 30% to 50%; inactive = 30% or less;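 also: compound concentration not given in the record; tested on top of an EC20 dose of dopamine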
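D2 cells co-treated with compound plus 50 nM dopamine (EC20) for 90 min at 37 deg C to detect potentiation. Beta-arrestin recruitment was read as enzyme-fragment luminescence after 1 h at ambient temperature. Full response was set by 57 uM dopamine.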
CtBP-E1A inh: blocks the CtBP interaction with E1A. AlphaScreen GST-E1A/His-CtBP binding, 1536-well; hits give low values; control for the full effect not named in the record. activity change, % (no concentration beside the values). 0.49% of 340,000 active. AID 651724; in the data active means activity change below about -65%; inconclusive means about -30% to -65%; inactive means above about -30%; also: % is scaled to controls: 0 for no effect and ±100 for the full control effect; compound concentration not given in the record
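GST-E1A and His-tagged CtBP (125 nM each as 5X stock) were preincubated with pin-transferred compound for 2 h at 37 °C in the dark, then glutathione donor and nickel acceptor beads were added for 1 h before AlphaScreen reading.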
Six1-Eya2 inh: Six1/Eya2 interaction inhibition; 0.56% of 360,000 active; activity change, % (concentration not given with the values); AlphaScreen GST-Six1/His-Eya2 binding, biochemical; hits give low values; control for the full effect not named in the record; in the data active = activity change below about -65%; inconclusive = about -30% to -65%; inactive = above about -30%; also: % is scaled to controls: 0 for no effect and ±100 for the full control effect
Target sequence (O00167 whole entry, looked up): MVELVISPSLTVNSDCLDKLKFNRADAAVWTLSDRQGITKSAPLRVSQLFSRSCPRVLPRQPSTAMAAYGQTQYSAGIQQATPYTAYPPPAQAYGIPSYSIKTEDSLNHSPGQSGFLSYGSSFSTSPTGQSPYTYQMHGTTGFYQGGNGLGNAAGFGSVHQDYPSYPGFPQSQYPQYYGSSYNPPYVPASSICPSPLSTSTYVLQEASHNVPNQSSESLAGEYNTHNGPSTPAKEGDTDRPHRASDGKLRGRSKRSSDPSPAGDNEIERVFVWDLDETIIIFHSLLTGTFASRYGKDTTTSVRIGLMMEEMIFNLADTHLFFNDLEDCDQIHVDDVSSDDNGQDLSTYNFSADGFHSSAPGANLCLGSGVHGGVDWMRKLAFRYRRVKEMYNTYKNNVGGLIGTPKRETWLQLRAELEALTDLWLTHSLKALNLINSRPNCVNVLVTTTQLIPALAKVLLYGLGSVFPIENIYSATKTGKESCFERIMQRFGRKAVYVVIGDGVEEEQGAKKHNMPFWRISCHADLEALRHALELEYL
Target sequence (Q15475 whole entry, looked up): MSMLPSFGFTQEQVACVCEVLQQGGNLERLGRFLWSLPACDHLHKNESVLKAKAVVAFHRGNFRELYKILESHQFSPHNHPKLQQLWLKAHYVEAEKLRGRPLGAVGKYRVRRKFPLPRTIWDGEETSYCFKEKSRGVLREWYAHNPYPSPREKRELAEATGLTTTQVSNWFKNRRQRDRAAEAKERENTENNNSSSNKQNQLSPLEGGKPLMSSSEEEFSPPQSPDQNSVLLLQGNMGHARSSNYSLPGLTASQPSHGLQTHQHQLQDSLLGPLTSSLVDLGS
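AlphaScreen with GST-Six1 and His-Eya2 (5X mix: 250 nM and 500 nM), glutathione donor and nickel acceptor beads; buffer 50 mM Tris pH 8.0, 300 mM NaCl, 1 mM TCEP; 1 h at 37 C in the dark.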
PINK1 expr mod: changes PINK1 expression; PINK1 immunofluorescence, high-content cytometry, 24 h; Potency, µM (doses to about 76.6 µM), without a hit: at the top dose activation (PINK1 increase), actives largely listed as activators; 0.2% of 410,000 active; AID 624263; active = well fitted activation curve with a large enough effect; inconclusive = small, poorly fitted or top-dose-only effect; inactive = flat fitted curve, though single readings scatter; cell line not stated here;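 also: potency is read from the fitted curve at half-maximal effect; % of control where 0% means no effect; nearly all actives have a fitted effect of over 65% in size; a mitochondrial uncoupler was the plate control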
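Readout is PINK1 immunofluorescence, quantified alongside mitochondrial, cell and nuclear markers by laser-scanning microplate cytometry. Cells from a stable line were exposed to compound titrations (5 concentrations) for 24 hours, with CCCP controls.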
An asterisk follows results filed as active; ? = inconclusive; · = not tested or not shown; [ ] = another dose, or the depositor's remark. Rows were taken by chance; 1.3% or so of the library scored in one or more.

SMILES	TRPML1 ag	D2 ag	D2 PAM	CtBP-E1A inh	Six1-Eya2 inh	PINK1 expr mod
COc1cc(C)c(S(=O)(=O)NCc2cccs2)cc1C	0.1	0.4	-7	13	11	3.2%
Cc1cccc(-c2nc(CS(=O)CC(=O)NCCc3ccc(Cl)cc3)c(C)o2)c1 (configuration not stated)	0.8	4.8	-7	-19	-3	0.0%
CCn1nc(C)c(NC(=O)Nc2cccc(Cl)c2Cl)c1C	-0.3	4.4	-20	-7	-1	-0.4%
Cc1ccc(-c2ccc(/C=N/NC(=O)CN3CCCC3)o2)cc1Cl	-0.4	-1.0	-13	-9	-8	-1.0%
O=C(Nc1ccc(C(O)(C(F)(F)F)C(F)(F)F)cc1)c1ccc(Cl)c([N+](=O)[O-])c1	1.5	14	-4	-1	-8	8.0%
CCN(CC(=O)Nc1ccccc1OC)C(=O)CSCc1c(C)noc1C	-0.6	-5.0	-8	3	-5	0.2%
Cc1cccc(-n2c(SCC(=O)Nc3nonc3C)nnc2-c2ccoc2C)c1	2.7	-3.0	-16	-2	-4	0.6%
Cc1ccc(-c2cn(CCC(=O)O)c(-c3ccc(Cl)nc3)n2)cc1	-0.7	-5.2	-10	2	0	-1.3%
Cc1ccc(C(=O)N2CC(C)OC(C)C2)cc1[N+](=O)[O-] (configuration not stated)	1.8	-0.4	-4	2	3	-2.4%
CN1CCC(NC(=O)NC2CCCCC2)CC1	0.2	-1.0	-14	-6	2	4.1%
CCOc1ccc(Cn2nnc(C(=O)Nc3ccc(OC)cc3OC)c2N)cc1	0.0	-8.3	-7	-4	7	3.4%
CCCCSc1nc2c(=O)[nH][nH]c(=O)c2n1Cc1ccccc1	1.2	0.7	-4	0	-1	2.5%
O=C(NNC(=O)c1ccccc1[N+](=O)[O-])Nc1ccccc1C(F)(F)F	2.9	6.1	-6	·	11	-1.0%
O=C(N/N=C/c1ccc(OCc2ccccc2)cc1)c1ccncc1	0.0	-2.2	-12	·	-2	5.9%
Cc1ccc2nc(-c3ccccn3)c(N)n2c1	-0.7	?	20	?	?	1.5%
CC1(C(=O)Nc2ccc3[nH]ncc3c2)CCN1C(=O)C1(c2ccccc2)CC1 (configuration not stated)	-0.6	-4.4	-12	-11	-13	-0.5%
O=C(O)CCSc1nc2ccccc2n1Cc1ccccc1	0.0	-2.8	-2	14	3	-0.7%
CCOc1ccc(-c2cc(N3C(=O)Nc4ccccc4N3O)on2)cc1	1.8	0.0	-12	4	0	-2.0%
COc1ccc(Nc2cc(C(=O)N3CCc4ccccc4C3)c3ccccc3n2)c(OC)c1	1.7	0.5	-1	-14	-23	1.3%
COc1ccc(C)cc1NC(=O)Cc1csc(NC(=O)Nc2ccccc2OC)n1	-0.2	4.2	-20	-8	-13	-1.5%
OC(CN1CCOCC1)Cn1c2ccccc2c2ccccc21 (configuration not stated)	0.8	-4.0	-5	·	1	-0.5%
Cc1onc(-c2ccccc2Cl)c1C(=O)N1CCC(C)CC1	-0.4	-3.7	-10	-9	-2	-0.2%
Cc1cc(N2C(=O)C(O)=C(C(=O)c3cccs3)C2c2cccc(O)c2)no1 (configuration not stated)	-0.8	-2.6	-27	1	1	0.0%
COc1ccc(-c2cc(=O)oc(-c3cccc(C)c3)n2)cc1	-0.9	-2.8	-18	·	8	1.4%
NS(=O)(=O)c1ccc(CCNC(=O)c2ccc[nH]c2=S)cc1	-0.2	-4.9	-8	7	0	0.2%

Single values from the entries so far.
Entry of O=C(Nc1ccc(C(O)(C(F)(F)F)C(F)(F)F)cc1)c1ccc(Cl)c([N+](=O)[O-])c1 under Six1-Eya2 inh: -8
Entry of O=C(N/N=C/c1ccc(OCc2ccccc2)cc1)c1ccncc1 under PINK1 expr mod: 5.9%
Entry of CCn1nc(C)c(NC(=O)Nc2cccc(Cl)c2Cl)c1C under TRPML1 ag: -0.3
Entry of CCCCSc1nc2c(=O)[nH][nH]c(=O)c2n1Cc1ccccc1 under PINK1 expr mod: 2.5%
Entry of Cc1onc(-c2ccccc2Cl)c1C(=O)N1CCC(C)CC1 under D2 PAM: -10

Sorted by the number under D2 PAM (ascending): 3 of the compounds above
canonical_smiles,D2 PAM
O=C(N/N=C/c1ccc(OCc2ccccc2)cc1)c1ccncc1,-12
OC(CN1CCOCC1)Cn1c2ccccc2c2ccccc21 (configuration not stated),-5
O=C(O)CCSc1nc2ccccc2n1Cc1ccccc1,-2

Additional structures follow:
SMILES	TRPML1 ag	D2 ag	D2 PAM	CtBP-E1A inh	Six1-Eya2 inh	PINK1 expr mod
FC(F)(F)c1cccc(N2CCN(C(=S)NC3CCCCC3)CC2)c1	2.1	2.0	-9	5	-9	32µM*
Cc1ccc(S(=O)(=O)NCCC(=O)NCC(c2ccco2)N2CCCCC2)cc1C (configuration not stated)	0.3	-3.5	-3	-2	6	-0.4%
COC(=O)C1CCN(Cc2ccc(OCCCN3CCN(c4ccc([N+](=O)[O-])cc4)CC3)cc2)CC1	-0.6	-3.4	-16	-17	?	6.2%
CCC1(O)CC(c2ccccc2)=NN1C(=O)c1ccccc1F (configuration not stated)	-0.2	0.1	-2	2	2	0.8%
COc1ccc(-n2c(CN3CCN(c4ccc(F)cc4)CC3)nc3ccc([N+](=O)[O-])cc3c2=O)c(OC)c1	0.3	2.4	-11	-26	-22	-1.9%
COc1ccc2oc(=N)c(C(=O)Nc3ccc(Cl)cc3)cc2c1	0.1	-0.2	-2	10	-8	1.9%
O=C(CNCc1cccs1)Nc1ccc(OC(F)(F)F)cc1	-0.5	5.4	-7	5	0	2.8%
Cc1onc(C(=O)Nc2ccccc2C(F)(F)F)c1[N+](=O)[O-]	0.7	-1.3	-9	·	0	1.7%
Cc1ccc(C)c(-n2c(Cc3cccs3)n[nH]c2=S)c1	0.0	-1.4	-4	-2	-1	6.1%
CN1CCN(c2cnn(-c3ccccc3)c(=O)c2Br)CC1	0.7	-1.8	-4	·	-3	1.4%
CC(=O)Nc1ccc(NC(=O)c2ccc(-n3c(C)ccc3C)cc2)cc1	0.0	-0.8	-16	-7	-12	1.4%
CCN1CCc2c(sc3c2c(NCc2ccco2)nc2nnnn23)C1	2.3	-0.7	-30	-13	-19	0.7%
Cc1ccc(Cl)cc1NC(=O)CCN1C(=O)C2C3CCC(C3)C2C1=O (configuration not stated)	0.5	2.0	-8	·	-3	1.1%
CCN(C(=O)COC(=O)c1cc(Cl)ccc1OC)c1c(N)n(Cc2ccccc2)c(=O)[nH]c1=O	-1.9	-0.7	-10	·	-5	1.8%
O=C(CCc1nc2sc3c(c2c(=O)[nH]1)CCCC3)N1CCN(c2ccccc2)CC1	1.7	-2.3	-65	-12	-3	12%
Cc1cccc(C(=O)N/N=C/c2ccc[nH]2)c1	0.0	-4.1	-16	-14	3	4.3%
COc1cc(C(=O)c2ccc3c(c2)OCO3)cc(OC)c1OC	0.4	5.8	19	3	-6	9.7%
Cc1cc(NC(=O)CSc2nnc(CNc3ccc(F)cc3)n2C2CCCCC2)no1	-0.3	-4.3	-10	0	-1	-1.0%[38.3 µM]
CCOC(=O)N1CCN(C(=O)CN(C2CCCCC2)S(=O)(=O)c2c(C)cc(C)cc2C)CC1	-0.1	-4.8	-10	-2	-9	·
COCCNC(=O)COC(=O)C1=Cc2ccccc2OC1	-0.2	-4.8	0	1	4	0.6%
C/C(=N\Nc1nc(-c2ccccc2)cs1)c1cccs1	0.2	13	-2	?	-30	2.1%
Cc1ccc(CC(=O)OCC(=O)c2ccc[nH]2)cc1C	2.5	-0.9	-13	-12	-3	1.9%
CCOC(=O)C1(CCC(=O)OCc2ccccc2)CCCCC1=O (configuration not stated)	1.2	-4.9	-14	-1	4	4.7%
CCc1nnc(NC(=O)c2ccc(OC)cc2)s1	-0.5	-3.6	-23	2	-2	0.9%
Cc1ccc(C(=O)Nc2cccc3cccnc23)cc1Br	-0.3	-1.9	-7	12	6	9.3%

Later entries:
SMILES	TRPML1 ag	D2 ag	D2 PAM	CtBP-E1A inh	Six1-Eya2 inh	PINK1 expr mod
Cc1ccc(C(=O)C2Oc3ccccc3C3CC(c4ccc(C)cc4)=NN23)cc1 (configuration not stated)	1.6	-5.1	-12	-4	-7	7.1%
O=C(c1cc(-c2ccc(Cl)cc2)n[nH]1)N1CCN(C(=O)c2ccco2)CC1	0.5	-4.0	-16	-8	0	2.6%
O=C1NC[C@@H](Cc2cccc3ccccc23)N(CCC23CC4CC(CC(C4)C2)C3)C1=O	0.9	-3.0	-13	·	6	1.5%
Cc1ccc(Cl)cc1N1CCN(C(=S)NCCc2ccccc2)CC1	0.1	-3.4	-5	-4	14	6.8%
CCC1CCc2c(sc3ncnc(N4CCOCC4)c23)C1 (configuration not stated)	0.4	-0.9	-19	-1	-7	-1.3%
Cc1ccc(Nc2nc(N)c([N+](=O)[O-])c(NCc3ccccc3)n2)cc1	3.2	-2.5	-5	-10	-17	1.3%
NS(=O)(=O)c1ccc(CCN=Cc2ccccc2O)cc1	-0.6	0.6	-2	0	-5	-0.6%
CC1(C(=O)NS(=O)(=O)c2ccc3c(c2)CCO3)CCN1C(=O)CCc1ccc(Cl)cc1Cl (configuration not stated)	-0.6	-4.2	0	3	0	3.3%
CC(C)(C)C(=O)NC(NC(=S)Nc1ccc(S(N)(=O)=O)cc1)C(Cl)(Cl)Cl (configuration not stated)	-0.3	0.2	5	31	9	3.2%
CC1C(=O)N2CCCc3cc(NC(=O)C(=O)NCCc4c[nH]c5ccccc45)cc1c32 (configuration not stated)	-0.7	1.9	-11	7	-11	-0.3%
CC(=O)C(=Cc1ccc(O)cc1)C(C)=O	0.3	6.5	-13	·	6	0.5%
Nc1c(Cl)ncnc1N/N=C/c1ccc(O)cc1	-0.2	-2.5	-13	-19	?	0.6%
C=CCOc1ccc(Br)cc1/C=N/O	-0.2	-3.0	-4	3	-3	2.5%
O=C(NNC1CC(=O)N(c2ccccc2)C1=O)c1ccco1 (configuration not stated)	-0.2	-4.1	-5	7	5	-0.3%
CC1CC(C)CN(CC(O)COC2CC(C)CC(C)(C)C2)C1 (configuration not stated)	-0.8	-5.1	-24	·	6	7.3%
Cc1[nH]nc(N2CCCCCC2)c1[N+](=O)[O-]	-0.5	-2.5	-5	10	2	-1.9%
CCOC(=O)/C=C1\SCC(=O)N1CC(=O)Nc1ccccc1OC(F)F	0.4	-3.1	-9	2	3	1.0%
Cc1cccc(CN(C)C[C@@H]2OCc3cnnn3CCCC(=O)N([C@H](C)CO)C[C@H]2C)c1	-0.6	-4.7	-2	-1	3	-0.5%
Cc1cc(=O)oc2cc(OCC(=O)N3c4ccccc4NC(=O)C3(C)C)ccc12	1.6	5.9	19	4	-13	-0.2%
CC(=O)Nc1cc(-c2ccc(N3CCN(C)CC3)cc2)cn2c(-c3ccc(F)c(Cl)c3)cnc12	-0.2	4.6	-12	-26	-23	-1.0%
CCCc1ccc(OCc2ccc(C(=O)NCc3cccnc3)o2)c(OC)c1	1.3	-0.9	-13	·	-5	1.7%
C/C=C/c1ccc(Oc2nnnn2-c2ccc(C(N)=O)cc2)c(OC)c1	0.4	-0.4	-5	-4	-10	2.4%

Bioassay records: PubChem, National Center for Advancing Translational Sciences (NCATS)
